Sa growth 42C = S. aureus growth inhibition. S. aureus RN4220 growth, OD600, 20 h, 42 °C; active compounds read low. relative growth, % (concentration not given with the values). 170,000 tested, 0.53% active. AID 720641;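 active means growth at 42 °C up to 50% and 20 or more points under that at 30 °C, or under 10% at both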;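 further: 300 nL library stock went into each well; scaled to the means of positive and negative controls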
GIV Gai3 FP = inhibitors of GIV GBA-motif binding to rat Galpha-i3 | P08753 | Galpha-i3/FITC-GIV peptide fluorescence polarization, 90 min; active compounds read low; scaled: aluminum fluoride 0%, vehicle 100% | 210,000 tested, 0.42% active | AID 1224905 | percent of control (FP), % (concentration not given with the values);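 active means replicate mean at 85% of control or lower, very high polarization wells dropped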;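 further: wells of about 15 µL received 100 nL stock; the first replicate is given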
Target sequence (P08753 whole entry, looked up): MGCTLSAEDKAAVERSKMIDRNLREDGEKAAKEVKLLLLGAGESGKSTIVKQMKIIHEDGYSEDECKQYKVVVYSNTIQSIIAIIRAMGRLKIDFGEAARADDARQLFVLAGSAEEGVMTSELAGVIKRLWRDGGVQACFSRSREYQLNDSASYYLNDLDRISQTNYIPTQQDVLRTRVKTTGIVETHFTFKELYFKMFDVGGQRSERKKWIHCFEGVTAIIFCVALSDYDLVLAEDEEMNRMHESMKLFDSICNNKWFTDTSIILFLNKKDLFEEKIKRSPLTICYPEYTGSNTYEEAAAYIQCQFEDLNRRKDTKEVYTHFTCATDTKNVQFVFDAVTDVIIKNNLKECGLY
HCMV NEC inh = inhibitors of HCMV UL50-UL53 nuclear egress complex interaction. HTRF UL50-UL53 interaction, normalized percent inhibition. inhibition, % (test concentration not listed). 190,000 tested, 0.15% active. AID 1918969;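 active means both replicates at 50% or more, plus weaker picks with an unusually low signal ratio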;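 further: stock transfer was 100 nL into about 20 µL; 0% = negative control wells and 100% = wells with untagged competitor protein; inactives centre near -12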
Sa growth 42C second temp = also measured in Sa growth 42C; calls as there; relative growth, %; measured here: growth at 30 °C;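 optical density after 20 h as mean of two plates; 100% = untreated growth and lower means inhibition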
* = called active by the depositor; / = not tested or not shown; & = joins results of further samples. Rows were taken by chance. About 0.8% of those tested had a hit in this group.

Sample of the layout (6 entries):
Each structure is followed by: HCMV NEC inh, Sa growth 42C, Sa growth 42C second temp, GIV Gai3 FP
1: O=c1[nH]c2cc3c(cc2cc1CNCc1ccc2c(c1)OCO2)OCCO3
  -32, 93, 79, 102
2: CCOC(=O)c1cc(C)nn1S(=O)(=O)c1ccc(Cl)c(Cl)c1
  -2, 112, 78, 97
3: COc1cc(NC(=O)c2cc3n(n2)C(C(F)(F)F)CC(c2ccc(Br)cc2)N3)cc([N+](=O)[O-])c1 (stereo unspecified)
  -26, /, /, 94
4: CC(C)C(C(=O)O)n1c(=S)[nH]c2ccccc2c1=O (stereo unspecified)
  -24, 78, 95, /
5: COC(=O)c1cc(S(=O)(=O)NCC2CCN(CCc3cccs3)CC2)c[nH]1
  4, 97, 104, 109
6: CCCCN(CC)CCNC(=O)C1CCN(S(=O)(=O)c2cccc3nsnc23)CC1
  -63, 105, 90, 108

The list itself, repeating the preview:
Each structure is followed by: HCMV NEC inh, Sa growth 42C, Sa growth 42C second temp, GIV Gai3 FP
1: O=c1[nH]c2cc3c(cc2cc1CNCc1ccc2c(c1)OCO2)OCCO3
  -32, 93, 79, 102
2: CCOC(=O)c1cc(C)nn1S(=O)(=O)c1ccc(Cl)c(Cl)c1
  -2, 112, 78, 97
3: COc1cc(NC(=O)c2cc3n(n2)C(C(F)(F)F)CC(c2ccc(Br)cc2)N3)cc([N+](=O)[O-])c1 (stereo unspecified)
  -26, /, /, 94
4: CC(C)C(C(=O)O)n1c(=S)[nH]c2ccccc2c1=O (stereo unspecified)
  -24, 78, 95, /
5: COC(=O)c1cc(S(=O)(=O)NCC2CCN(CCc3cccs3)CC2)c[nH]1
  4, 97, 104, 109
6: CCCCN(CC)CCNC(=O)C1CCN(S(=O)(=O)c2cccc3nsnc23)CC1
  -63, 105, 90, 108
7: N/N=C1\C(=N/O)CCc2nonc21
  -75, 121, 101, 103
8: Nc1nc(CN2CCc3ccccc3C2)nc(Nc2ccccc2)n1
  3, 85, 75, 102
9: CCCCNC(=O)c1cccc(-n2cnc3cccnc32)c1C
  /, 130, 98, 108
10: NC(=O)c1nc(-c2ccc(F)c(F)c2)nc2c1[nH]c(=O)n2-c1cccc(Cl)c1
  -10, 114, 86, 98
11: CCSc1nnc2c(n1)OC(c1ccc(OC)c(OC)c1)N(C(C)=O)c1ccccc1-2 (stereo unspecified)
  -110, 88, 73, 100
12: Cc1ccc(NC(=O)CCc2nc3ccccc3c(=O)[nH]2)cc1
  -11, 64, 78, /
13: CC(=O)NC(Cc1ccc(O)cc1)C(=O)NN (stereo unspecified)
  7, 113, 106, /
14: Cc1cc(C)cc(NC(=O)C(=O)NCC(c2ccc3c(c2)OCO3)N2CCN(C)CC2)c1 (stereo unspecified)
  /, 109, 88, 101
15: Cc1ccc2c(c1)NCC(C(=O)NCc1ccccc1)O2 (stereo unspecified)
  -13, 128, 92, 103
16: CCS(=O)(=O)c1ncc(Cl)c(C(=O)Nc2c(C(=O)c3ccc(C)cc3)oc3ccccc23)n1
  -14, 104, 81, 100
17: CC(C)CN(CC(C)C)C(=O)c1noc2c1CC(C)CC2 (stereo unspecified)
  -22, 97, 84, 104
18: Cc1ccc(C)c(N2CCN(c3cc(C(=O)O)c4cc(NS(=O)(=O)c5ccc(F)cc5)ccc4n3)CC2)c1
  -16, /, /, 100
19: Cc1ccc(C(=O)OCC(=O)NCc2ccc3c(c2)OCO3)cc1S(=O)(=O)N1CCOCC1
  -18, 95, 87, /
20: CC(=O)CC(c1ccccc1)c1c(O)c2ccccc2oc1=O (stereo unspecified)
  -32&-12&-12&-65, 100, 86, /

An excerpt from above in order of their number in GIV Gai3 FP, ascending:
#	structure	Sa growth 42C second temp	GIV Gai3 FP
18	Cc1ccc(C)c(N2CCN(c3cc(C(=O)O)c4cc(NS(=O)(=O)c5ccc(F)cc5)ccc4n3)CC2)c1	/	100
8	Nc1nc(CN2CCc3ccccc3C2)nc(Nc2ccccc2)n1	75	102
17	CC(C)CN(CC(C)C)C(=O)c1noc2c1CC(C)CC2 (stereo unspecified)	84	104

Later entries.
Each structure is followed by: HCMV NEC inh, Sa growth 42C, Sa growth 42C second temp, GIV Gai3 FP
21: O=C1CCN(Cc2ccccc2)C(=O)N1c1ccccc1
  -36, 94, 88, 105
22: CC1CN(c2nn3c(=O)c4ccccc4nc3c3ccccc23)CC(C)O1 (stereo unspecified)
  -35, 103, 81, 107
23: N#Cc1c2n(cnc1=O)CCCCC2
  3, 96, 103, 109
24: CNC(=O)N(C1=NCCCCC1)c1ccc(C)cc1
  -17, 94, 88, /
25: Cc1nnc(COc2ccccc2C#N)o1
  -31, 93, 88, /
26: Cc1cc(S(=O)(=O)Nc2cc3c(cc2Cl)n(C)c(=O)c(=O)n3C)ccc1F
  -34, 90, 71, 102
27: COC(=O)Oc1cncc(C(=O)O)c1
  -11, 99, 87, 90
28: NC1=NC(=O)/C(=C\c2ccc(-c3ccc(Cl)c([N+](=O)[O-])c3)o2)S1
  -26, /, /, 105
29: CCOC(=O)C1CCN(C(=O)C2CCCN2c2nnc(N3CCCC3=O)s2)CC1 (stereo unspecified)
  -17, /, /, 101
30: CCOc1cc(C2C3=C(CC(C)(C)CC3=O)Nc3onc(C)c32)ccc1OC (stereo unspecified)
  -15, /, /, 104
31: Cc1ccc(OCCC(=O)O)cc1
  5&-8&-3, 94, 91, 109
32: COc1ccc(/C=C/C(O)=C(\C#N)c2nnc(N3CCOCC3)n2-c2ccccc2)cc1OC
  6, 101, 96, /
33: Cc1cc(C)cc(NC(=O)C2CCCN2S(=O)(=O)c2ccc3c(c2)C(C)(C)C(=O)N3C)c1 (stereo unspecified)
  /, 94, 75, 103
34: COc1ccc(CNC(=O)c2cnn(-c3ccccc3)c2-n2cccc2)cc1OC
  2, 91, 73, 109
35: CCCCCOC(=O)C1=C(C)N(C)C(=O)NC1c1ccc(OCc2ccccc2)cc1 (stereo unspecified)
  -12, /, /, 100
36: O=C1/C(=C\c2ccccc2)SC(=S)N1CN1CCCCC1
  -44, /, /, 96
37: CC(C)(Oc1ccc(Cl)cc1)C(=O)Nc1nnc(C(F)(F)F)s1
  -14, -1.1*, -0.7*, 104
38: CCCCCn1c(=O)c2c(nc3n2CCN3c2ccc(OC)cc2)n(C)c1=O
  2, /, /, 98
39: Cc1cccc(CN2CCN(CC(=O)NC3CCCCCC3)C2=O)c1
  -27, 96, 88, 96
40: CC(C)CCNS(=O)(=O)c1ccc2[nH]c3c(c2c1)CCCC3
  /, 100, 83, 95
41: COc1ccccc1C(=O)Nc1ccc(C)cc1C
  -15, 74, 69, /
42: COc1cccc(CNCCCN2CCOCC2)c1OCc1ccc(F)cc1
  -11, 75, 88, 98
43: O=C(CCCCCN1C(=O)C2C3C=CC(C3)C2C1=O)Nc1ccc2ncccc2c1 (stereo unspecified)
  -50, 95, 83, 103
44: Cn1ncc2c(NCC3CCCO3)ncnc21 (stereo unspecified)
  8, 104, 96, 97
45: Cc1sc2nc(-c3ccccc3Cl)n(CC(=O)Nc3ccccc3C(F)(F)F)c(=O)c2c1C
  -13, /, /, 101
46: O=C(NCc1ccco1)NC(=O)c1ccccc1
  0, 98, 94, 103
47: O=C(COC(=O)c1cccnc1Cl)c1ccccc1Br
  -34, 116, 89, /
48: Oc1ccc(Br)cc1C=Nc1cc2c(cc1Br)OCCO2
  /, 118, 89, 150
49: Cc1ccc(OC(=O)CCC(=O)N2CCc3ccccc32)cc1
  8, 122, 103, 102
50: Cc1ccc2c(CC(=O)Nc3ccccc3C(F)(F)F)coc2c1C
  -11, 107, 88, 105
51: CCc1ccc(S(=O)(=O)NCCc2csc3nc(-c4ccccc4)nn23)s1
  /, 106, 105, 99
52: Cc1nc2ccccc2c(=O)n1-c1nc2ccccc2n1C
  -8, 114, 93, /
53: CCn1nc(C(=O)N(C)Cc2ccc(OC(F)F)cc2)c2ccccc2c1=O
  -4, 100, 95, /
54: Cc1cccc(OCC(=O)NCC(=O)n2nc(C)cc2C)c1
  -25, 88, 83, 100
55: O=C(CSc1n[nH]c(-c2ccccc2Cl)n1)N1CCN(c2ccc(F)cc2)CC1
  /, 129, 84, 104
56: Cc1cccc(NC(=O)C2C3CC/C=C\CCC32)c1 (stereo unspecified)
  -8, 96, 93, /
57: COc1ccc(OCCN2C(=O)CNC2=S)cc1
  -9, 90, 89, 107
58: NCC1OCCc2ccccc21 (stereo unspecified)
  -36, 91, 103, 101
59: CSc1ncc(S(=O)(=O)Cc2ccco2)c(N)n1
  -7, 108, 95, 104
60: CCn1c(CN(c2ccc(F)cc2)S(C)(=O)=O)nnc1SCC(=O)N1C(C)CCCC1C (stereo unspecified)
  2, /, /, 110
61: Cc1ccc(C(=O)OCC(=O)/C=C2\N(C)c3ccccc3C2(C)C)cc1NC(=O)c1ccco1
  -4, 89, 90, /
62: CCN(CC)CCOC(=O)c1ccc(NC(=O)c2cc3c(=O)n(CC)c4ccccc4c3s2)cc1
  -2, 78, 66, 105
63: CCCN(CCC)c1nc(-c2ccccc2F)nc2ccccc12
  10, 96, 96, 112
64: Cc1cc(-c2nnc(-c3ccc(Cl)cc3)o2)no1
  -4, 90, 104, 110
65: CCc1cc(-c2n[nH]c(C)c2-c2nc3ccccc3n2C)c(O)cc1O
  -15, 90, 71, /
66: CC(=O)c1cc2c(cc1N/C(=N/S(=O)(=O)c1ccccc1)c1ccc(Cl)cc1)OCO2
  /, 108, 99, 101
67: CCOC(=O)C1=C(C)N=c2s/c(=C3\C(=O)N(CC)c4ccccc43)c(=O)n2C1c1cccc([N+](=O)[O-])c1 (stereo unspecified)
  -7, /, /, 108
68: CCN(CC)C(=O)c1ccc2c(c1)OCO2
  -9, 93, 85, /
69: COc1ccc(S(=O)(=O)Nc2ccccc2C(=O)N2CCCCC2)cc1
  10, 111, 109, /
70: CCOC(=O)c1[nH]c2ccc([N+](=O)[O-])cc2c1CCN1C(=O)c2ccccc2C1=O
  -6, /, /, 103
71: O=C(C(Cc1ccccc1)n1cccc1)N1CCc2ccccc21 (stereo unspecified)
  8, 99, 91, 97
72: CCn1c2ccccc2c2cc(NS(=O)(=O)c3cccs3)ccc21
  -11, 85, 90, /
73: COC(=O)c1cc(=O)[nH]c(SCc2cccc(C)c2)n1
  -7, 94, 91, 109
74: CCn1nc(C)c(CCN(C)C(=O)Nc2cc(OC)c(OC)c(OC)c2)c1C
  /, 94, 85, 104
75: COc1cc(Nc2ncc3c(n2)CCN(S(=O)(=O)c2cc(OC)ccc2OC)C3)cc(OC)c1
  -14, /, /, 105
76: COc1ccccc1C(=O)Oc1ccc(C(c2c(C)[nH][nH]c2=O)c2c(C)[nH][nH]c2=O)cc1
  -20, 105, 87, 103
77: O=C(Cc1ccc(N2CCCC2=O)cc1)Nc1ccc(-c2nnc3n2CCCCC3)cc1
  -6, 111, 84, /
78: COc1cc2c(cc1OC)C(C)N(C(=O)c1snnc1C)CC2 (stereo unspecified)
  -10, 101, 86, 105
79: Cc1nn(S(=O)(=O)c2ccc(Br)cc2)c(C)c1S(=O)(=O)N1CCCCCC1
  /, 112, 83, 97
80: Cc1cccc(C)c1OCC(=O)Nc1c(C(=O)c2ccc(Br)cc2)oc2ccccc12
  -4, 99, 87, 108

Down the list, from the results shown:
Compounds 12–21 in GIV Gai3 FP read /, /, 101, 103, 100, 104, 100, /, /, 105

Next compounds:
Each structure is followed by: HCMV NEC inh, Sa growth 42C, Sa growth 42C second temp, GIV Gai3 FP
81: CCCCN(Cc1ccccc1)S(=O)(=O)c1cc(Br)cc2c1N(C(C)=O)CC2
  -6, 76, 94, 102
82: CC1(C)CC(=O)C2=C(C1)NC(=O)CC2c1ccccc1 (stereo unspecified)
  5, 79, 111, 97
83: Cc1cc2c(n1-c1ccc(C(=O)NCCc3ccccc3)cc1)CCC(C)C2 (stereo unspecified)
  /, 93, 91, 103
84: O=C(CN(CCc1ccccc1)S(=O)(=O)c1ccc(Br)cc1)NC1CC1
  /, 99, 91, 96
85: O=C(Nc1ccc2c(c1)nc1n2CCN(Cc2ccccc2)C1)C1CCCCC1
  -17, 100, 87, 98&94
86: COc1cc(Cl)c(NC(=O)c2cc(C)[nH]n2)c(OC)c1
  -25, 98, 87, 103

Source: PubChem
